High-throughput results deposited in PubChem by National Center for Advancing Translational Sciences (NCATS).
miR-21 reporter: qHTS Assay for Modulators of miRNAs and/orActivators of miR-21; HeLa miR-21 FLuc reporter, luciferase, 48 h; Potency, µM (doses to about 38.3 µM), without a hit: at the top dose reporter change, positive = more light; 340,000 tested, under 10 active; active = well fitted rising curve with a large enough effect; inconclusive = small, poorly fitted or top-dose-only effect; inactive = no such curve, though single readings can be large or run the other way;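 note: % of control where 0% means no effect; miR-21 action dims this reporter so a rising signal means less miR-21 action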
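HeLa cells endogenously expressing miR-21, stably carrying CMV-driven firefly luciferase with a downstream miR-21 binding site, 2000 cells/well. Titrations up to approximately 40 uM, 48 hours; luciferase luminescence read.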
GLA inh pH 4.5: qHTS Assay for Inhibitors of Human alpha-Galactosidase at pH 4.5 | Alpha-galactosidase A (Homo sapiens), P06280 | purified enzyme, 4-MU-alpha-Gal fluorescence, pH 4.5 | activity change, negative = inhibition, % at 105 µM | 230,000 tested, under 10 active; inconclusive = small, poorly fitted or top-dose-only inhibition, or a rising curve; inactive = flat fitted curve, though single readings scatter; no compound was filed as active;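 note: 0% = full activity with enzyme and -100% = basal without enzyme; dose as in the result columns while the protocol names 77 µM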
Target sequence (P06280 whole entry, looked up): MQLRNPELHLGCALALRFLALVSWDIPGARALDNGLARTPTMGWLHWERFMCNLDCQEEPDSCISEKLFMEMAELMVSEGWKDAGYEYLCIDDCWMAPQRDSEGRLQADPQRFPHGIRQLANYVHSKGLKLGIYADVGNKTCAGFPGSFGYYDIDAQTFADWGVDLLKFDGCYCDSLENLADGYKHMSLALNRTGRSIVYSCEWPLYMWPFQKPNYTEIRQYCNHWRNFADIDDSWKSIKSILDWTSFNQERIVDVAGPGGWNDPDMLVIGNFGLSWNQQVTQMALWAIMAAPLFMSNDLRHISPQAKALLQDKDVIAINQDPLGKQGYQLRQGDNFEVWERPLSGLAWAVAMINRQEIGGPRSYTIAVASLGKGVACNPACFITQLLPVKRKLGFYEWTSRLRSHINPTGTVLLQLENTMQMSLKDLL
Rango release inh: qHTS Assay for Inhibitors of RanGTP induced Rango (Ran-regulated importin-beta cargo) - Importin beta complex dissociation; Snurportin-1 (Homo sapiens) + GTP-binding nuclear protein Ran (Homo sapiens) + Importin …; AID 540253, 2011; 340,000 compounds, 0.071% hits; Biochemical FRET Rango-importin beta, RanGTP-induced dissociation; Potency, µM (doses to about 46.1 µM), for inactives: at the highest dose activity change, negative = inhibition; active means falling FRET ratio curve, often poorly fitted, with flat reads before Ran was added; inconclusive means other falling curves, or compound fluorescence or quenching; inactive means flat or rising ratio curve;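 note: potency is the fitted concentration of half-maximal effect; % of control where 0% means no effect; nearly all actives have a fitted effect of over 45% in size; -100% = wells without RanGTP and RCC1; the record marks most hits as doubtful in a second field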
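Compounds sat 5 min at room temperature with 0.1 uM Rango biosensor plus 0.25 uM importin beta, then FRET pre-read. RanGTP-RCC1 (0.6 uM Ran, 2mM GTP, 0.2 uM RCC1) added for 45 min, and the CFP/YFP post-read measured blocked complex dissociation.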
Rango-impB inh: qHTS Assay for Inhibitors of Rango (Ran-regulated importin-beta cargo) - Importin beta complex formation | Importin subunit beta-1 (Homo sapiens), Q14974 | Rango CFP/YFP FRET sensor + importin beta, 45 min | Potency, µM (top dose mostly 92.2 µM), for inactives: at the top dose inhibition of complex formation | 340,000 compounds, 0.031% hits | AID 540263, 2011; active = rising FRET ratio curve, often small or poorly fitted; inconclusive = mostly compound fluorescence or quenching in the first reads; inactive = flat curves in all reads;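 note: potency is the fitted concentration of half-maximal effect; 0% = DMSO wells and 100% = buffer wells lacking importin beta; nearly all actives have a fitted effect of over 15% in size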
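Inhibition scored from the CFP 486 nm/YFP 530 nm FRET ratio 45 min after adding 0.125 microM importin beta to 50 nM Rango biosensor preincubated 5 min with compound (room temperature, PBS with DTT, Tween-20, BSA). No-importin wells as positive control.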
* marks the source's active call; other numbers are inactive results; ? = inconclusive; . = not tested or not shown; & = joins results of further samples; [ ] = remark or other dose. Not all compounds are listed, so the mix of outcomes need not match the whole.

Values run as follows: miR-21 reporter, GLA inh pH 4.5, Rango release inh, Rango-impB inh
[1] COc1ccc2[nH]c3c(c2c1)CCn1c-3nc2sc(C(=O)Nc3ccccc3)c(C)c2c1=O
 : -15%, -7, ., .
[2] CCOC(=O)c1cc2c(nc1NC(=S)NCc1ccccc1)CCCC2
 : -22%, 1, 0%, 0.6%
[3] C/C(=C\CCC1(C)C2CC3C(C2)C31C)C(=O)O (stereo not drawn)
 : -7%, 1, 10%, 4.6%
[4] Cc1ccc(C(=O)NC(=S)NNC(=O)CC#N)cc1
 : -24%, 0, 2%, 0.0%
[5] COc1cccc(/C=C2\SC(=S)N(N3CCOCC3)C2=O)c1OC
 : -23%, -3, 0%, 1.3%
[6] CCC(C)c1ccc(NC(=S)NCc2cccs2)cc1 (stereo not drawn)
 : -23%, -1, -4%, -0.1%
[7] COc1ccc(OC)c(CN2CCC(C(=O)N3CCOCC3)CC2)c1
 : -11%, 2, 10%, -3.2%
[8] CSc1nc(N)nc2c1ncn2CC(=O)NCCCN1CCCC1=O
 : ., ., -10%, -0.8%
[9] CN(C(=O)CN1C(=O)CCSc2ccc(S(=O)(=O)N3CCCC3)cc21)c1ccccc1
 : -4%&-7%, ., 17%, -2.2%
[10] COc1ccc(C(C)(C)C)cc1NC(=O)COc1ccc(-c2nnco2)cc1
 : ., ., -13%, 0.8%
[11] COc1ccc(CC(=O)Nc2nc(-c3ccc(F)c(F)c3)cs2)cc1OC
 : 29%, ., 15%, -3.8%
[12] CCOC(=O)c1cnc2ccc(C(=O)OC)cc2c1Nc1cccc(C(=O)O)c1
 : -1%, -1, 1%, -4.7%
[13] Cc1sc2ncn3ncnc3c2c1C
 : -1%, 9, 5%, ?
[14] CCN1C(=O)/C(=C2/C=CC=CN2C)OC1=S
 : -9%, 6, 6%, -4.4%
[15] O=C(NC1CC1)C1CCN(C2CCN(Cc3ccccc3C(F)(F)F)CC2)CC1
 : -3%, ., 29%, -2.6%
[16] COc1ccc(CN(C)CC2CCCN(CCc3ccc(Cl)cc3)C2)cc1OC (stereo not drawn)
 : -13%, ., 0%, -3.8%
[17] Cc1ccc(-c2csc(NC(CO)c3nc4ccccc4n3CCOCCO)n2)cc1 (stereo not drawn)
 : ., ., 13%, 2.2%
[18] O=C(c1ccc(S(=O)(=O)Nc2ccc(F)cc2)cc1)N1CCN(c2ccccn2)CC1
 : 18%, -11, 9%, -0.1%
[19] Cc1ccc(S(=O)(=O)N2CCN(S(=O)(=O)N3CCOCC3)CC2)cc1
 : -2%, 2, 6%, ?
[20] CC(C)C(C(=O)NC1CCCC1)N(Cc1ccco1)C(=O)CNS(=O)(=O)c1ccccc1 (stereo not drawn)
 : 3%, ., 8%, -1.0%

Values run as follows: miR-21 reporter, GLA inh pH 4.5, Rango release inh, Rango-impB inh
[21] Cc1cs/c(=N/C(=S)Nc2ccccc2)n1C
 : -55%, 7, -4%, -0.1%
[22] CC(C)(C)C(=O)Nc1ccc(C(=O)N/N=C/c2ccccc2OC(=O)c2ccccc2)cc1
 : 24%, -1, 1%, -0.4%
[23] CC(C)(C)NC(=O)CCCCCCCC(=O)NC(C)(C)C
 : 1%, -5, 6%, -0.2%
[24] Cc1ccnc(NC(=O)C2CCN(S(=O)(=O)c3cccc4nsnc34)CC2)c1
 : 7%, -7, -1%, 0.6%
[25] O=C(NCC1CCCO1)c1ccc2c(c1)N(Cc1ccc(F)cc1Cl)C(=O)CS2 (stereo not drawn)
 : 0%, ., 3%, 4.7%
[26] O=C(O)CCC(=O)N(Cc1ccco1)c1nc(-c2ccccc2)cs1
 : -18%, 5, 0%, -1.6%
[27] Cc1ccc(NC(=O)CNC(=O)COc2ccccc2)nc1
 : ., ., 1%, -0.6%
[28] CCN(CC(=O)Nc1cc(Cl)ccc1C)C(=O)CCS(=O)(=O)c1ccc(C)cc1
 : ., ., -14%, 3.5%
[29] CCCCCCCCOc1ccc(C2OC34CCCCC3C(C#N)(C#N)C2(C#N)C(=N)O4)cc1 (stereo not drawn)
 : -4%, 27, ?, ?
[30] O=C(NCc1ccccc1)C1=C[C@H](c2ccccc2)C[C@H](OCc2ccc(CO)cc2)O1
 : ., ., -8%, -1.7%
[31] Brc1ccc(-c2csc(N/N=C/c3ccc4c(c3)OCO4)n2)cc1
 : -17%, 1, 10%, -2.1%
[32] O=C(O)C1CCCCC1C(=O)Nc1ccccc1F (stereo not drawn)
 : -4%, -2, 12%, -2.4%
[33] Cc1cccc(NC(=S)NC(=O)C(c2ccccc2)c2ccccc2)n1
 : ., ., -12%, -0.3%
[34] Cc1ccc(NC(=O)[C@H](Cc2ccccc2)NC(=O)C2CCNCC2)cc1
 : -2%, ., -1%, 0.5%
[35] COc1ccccc1OCCCCCCN1CCOCC1
 : 0%, 2, 3%, 0.2%
[36] CC(C)N(C(=O)Cn1cc(SCC(=O)NCC2CCCO2)c2ccccc21)C(C)C (stereo not drawn)
 : 2%, -11[21.1 µM], -10%, 1.8%
[37] C/C(CC(C)C)=N\Nc1ccc(S(N)(=O)=O)cc1[N+](=O)[O-]
 : 7%, -1, 2%, 7.5%
[38] COc1cccc(/C=N/NC(N)=S)c1OS(=O)(=O)c1ccccc1
 : -19%, -2, 56%, 0.9%
[39] CS(=O)(=O)Oc1ccc2c(c1)O/C(=C\c1cccnc1)C2=O
 : -1%, -5, 1%, ?
[40] Cc1ccc(S(=O)(=O)Nc2cccc(/C=C/C(=O)O)c2)cc1
 : 1%, 1, 1%, -2.7%

Values run as follows: miR-21 reporter, GLA inh pH 4.5, Rango release inh, Rango-impB inh
[41] CC(=O)CSc1nnc(-c2ccncc2)n1C
 : -4%, 0, 0%, -3.1%
[42] CCN(c1ccccc1)S(=O)(=O)c1cc(C(=O)Oc2ccc3c(C)cc(=O)oc3c2)ccc1C
 : -9%, ?, ?, -0.6%
[43] Cc1nn(CC(=O)Nc2ccccn2)c(C)c1[N+](=O)[O-]
 : 1%, -1, 3%, -0.6%
[44] Cc1cccc(NNC(=O)C2CCC2)c1
 : 16%, 2, -8%, -3.9%
[45] N/C(=N\OC(=O)Cc1ccccc1[N+](=O)[O-])c1cccnc1
 : 3%, 4, 2%, -4.6%
[46] O=C(COC(=O)c1ccc([N+](=O)[O-])o1)Nc1ccc(F)cc1
 : ., ., 18%, -5.9%
[47] CC1CN(C(=O)N2CCCCC2)CCN1C(=O)N1CCCCC1 (stereo not drawn)
 : -1%, -4, 1%, 0.8%
[48] CC(C)(C)N/N=C/c1cc(Cl)cc([N+](=O)[O-])c1O
 : -7%, 5, -5%, 2.9%
[49] Cc1noc(C)c1COc1ccccc1C(=O)NCCOc1ccccc1F
 : ., ., -4%, -2.2%
[50] S=C(Nc1cccnc1)N1CCN(c2ccccc2Cl)CC1
 : -4%, ., 4%, 0.3%
[51] Cc1cc(N2CCN(C)CC2)nc2ccc(NC(=S)N3CCN(c4ccc(Cl)cc4)CC3)cc12
 : -21%, 6, 2%, 6.3%
[52] Cn1c(CN2CCOCC2)nnc1SCc1ccccc1
 : -1%, 12, -4%, 3.6%
[53] CC(C)OCCCNC(=O)NC(=O)c1ccc(Cl)cc1
 : -16%, 4, 17%, -0.4%
[54] CCN(CC(=O)Nc1ccccc1C(F)(F)F)C(=O)C1CSC2(C)CCC(=O)N12 (stereo not drawn)
 : ., ., 1%, -1.2%
[55] COc1ccc(C2/C(=C(/O)c3ccc4c(c3)CC(C)O4)C(=O)C(=O)N2Cc2ccncc2)cc1 (stereo not drawn)
 : -2%, ., -14%, 0.5%
[56] Cc1ccc(CCNC(=O)C23CN(Cc4ccccc4)CC2C(c2cccc([N+](=O)[O-])c2)=NO3)cc1 (stereo not drawn)
 : 3%, -25, 22%, 2.8%
[57] CCN(C(=O)CSc1nnnn1-c1ccc(OC)cc1)C1CCS(=O)(=O)C1 (stereo not drawn)
 : ., ., 3%, 0.2%
[58] COc1ccccc1N1CCN(C(=O)/C=C/c2ccccc2)CC1
 : -24%, -15, -6%, 0.8%
[59] CCN(CC)c1nc2n(c(=O)n1)CCN2CC
 : -3%, -3, -7%, ?
[60] Cc1ccc(C(=O)Nc2ccc(S(=O)(=O)N3CCc4ccccc4C3)cc2)o1
 : -1%, -8, -2%, -2.3%

Values run as follows: miR-21 reporter, GLA inh pH 4.5, Rango release inh, Rango-impB inh
[61] COc1ccc(NC(=O)CNC(=O)Cc2cccc3ccccc23)c(OC)c1
 : ., ., 4%, 3.5%
[62] CCOC(=O)Cn1nc(C)n(-c2ccc(Br)cc2)c1=O
 : 0%, 2, -5%, 2.6%
[63] O=C(/C=C/c1ccccc1Cl)c1ccc[nH]1
 : -8%, 4, -7%, -3.4%
[64] CCc1cccc(CC)c1NC(=S)NCc1ccc2[nH]c(C)cc2c1
 : 22%, -5, ?, ?
[65] COc1ccc(C2=NS(=O)(=O)N(C)C(C(=O)Nc3ccc(OC)c(OC)c3)=C2)cc1
 : 7%, ., -11%, 0.0%
[66] O=C(OCC(=O)N1CCN(C(=O)c2ccco2)CC1)c1cn(-c2ccccc2)nc1-c1ccccc1
 : 0%, ?, -12%, -0.2%
[67] CN(C)C(CNc1ccc([N+](=O)[O-])cc1C#N)c1ccccc1 (stereo not drawn)
 : -4%, -8, 3%, -1.6%
[68] N=c1c(C(=O)NCc2ccc3c(c2)OCO3)cc2c(=O)n3ccccc3nc2n1Cc1cccnc1
 : 0%, -15, ?, ?
[69] CC1=CC=CC2=NC(=O)CC(C)(C(=O)O)N12 (stereo not drawn)
 : -2%, 2, 4%, -3.5%
[70] CCCn1cnc2c(oc3ccccc32)c1=O
 : -31%, ., 0%, -2.7%
[71] CCOc1ccc2nc(NC(=O)c3ccoc3C)sc2c1
 : -9%, 1, -11%, -1.6%
[72] Cc1ccc(CNCC(=O)Nc2ccc(N3CCOCC3)cc2)cc1
 : -1%, -7, -9%, 1.4%
[73] O=C(CSCc1nc2ccccc2[nH]1)Nc1ccc2ccccc2c1
 : -15%, -3, 0%, -1.7%
[74] O=C(Nc1ncn[nH]1)c1ccc(Cl)cc1Cl
 : -4%, 3, 3%, 2.7%
[75] CCOC(=O)C1CCN(S(=O)(=O)c2ccc(OC)c(OC)c2)CC1
 : 0%, 5, -3%, -0.4%
[76] N#CCSc1nc2[nH]ncc2c(=O)n1-c1ccccc1Br
 : ?, ., 0%, 0.4%
[77] O=C(C(=O)N1CCN(c2ccc(F)cc2)CC1)c1cn(CC(=O)N2CCOCC2)c2ccccc12
 : -6%, ., ?, 0.1%
[78] CC(C)(C)c1ccc(S(=O)(=O)/N=C2\C=C(NS(=O)(=O)c3ccccc3)C(=O)c3ccccc32)cc1
 : 0%, ., 1%, -2.1%
[79] Cc1ccc(S(=O)(=O)CCC(=O)OCC(=O)NCC(=O)Nc2c(C)cc(C)cc2C)cc1
 : ., ., -2%, 2.3%
[80] COc1ccc([C@H]2CC(=O)C=C(c3ccc(OC(F)(F)F)cc3)C2)cc1OC
 : ., ., -4%, ?

In another format: 7 of the compounds above.
64: CCc1cccc(CC)c1NC(=S)NCc1ccc2[nH]c(C)cc2c1
65: COc1ccc(C2=NS(=O)(=O)N(C)C(C(=O)Nc3ccc(OC)c(OC)c3)=C2)cc1
66: O=C(OCC(=O)N1CCN(C(=O)c2ccco2)CC1)c1cn(-c2ccccc2)nc1-c1ccccc1
67: CN(C)C(CNc1ccc([N+](=O)[O-])cc1C#N)c1ccccc1 (stereo not drawn)
68: N=c1c(C(=O)NCc2ccc3c(c2)OCO3)cc2c(=O)n3ccccc3nc2n1Cc1cccnc1
69: CC1=CC=CC2=NC(=O)CC(C)(C(=O)O)N12 (stereo not drawn)
70: CCCn1cnc2c(oc3ccccc32)c1=O

screen / no.,64,65,66,67,68,69,70
miR-21 reporter,22%,7%,0%,-4%,0%,-2%,-31%
GLA inh pH 4.5,-5,.,?,-8,-15,2,.
Rango release inh,?,-11%,-12%,3%,?,4%,0%
Rango-impB inh,?,0.0%,-0.2%,-1.6%,?,-3.5%,-2.7%
